# Compound activity (PubChem BioAssay)
# NPYLR7 ag – mosquito NPYLR7 agonism; HEK293T NPYLR7/Galpha15, GCaMP6s calcium fluorescence; activation, % at 10 µM; 0.15% of 270,000 active; AID 1259423; in the data active = activation above about 40%;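 note: 0% = vehicle and 100% = reference agonist at the receptor; some compounds past the cut are filed as inactive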
# NPYLR7 ag max-min – recorded beside NPYLR7 ag, whose call it bears; activation, %; measured here: Max-Min RFU normalised activation; some inactives read as strong as hits;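 span of the calcium signal over five minutes; 0% = vehicle and 100% = native peptide agonist; compound fluorescence can raise it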
# * hit, by the source's call; & = joins results of further samples. Some of the compounds tested. The share of hits here may be higher or lower than overall.
SMILES,NPYLR7 ag,NPYLR7 ag max-min
CCOc1ccc(NCC(O)Cn2c3ccccc3n3c(=O)cc(C)c(C#N)c23)cc1 (stereo not given),2,-4
CCc1cn[nH]c1C1CCN(c2cc(C(C)C)nc(C(F)(F)F)n2)CC1,16,6
Fc1cccc(C2CCCCN2Cc2nc(-c3cnccn3)no2)c1 (stereo not given),3&-1,-2&-7
Cc1cc(C(=O)N(Cc2ccccn2)c2nc3c(F)cc(F)cc3s2)nn1C,2,0
CN(CCCN1C(=O)CC2(C1=O)C(=O)N(Cc1ccccc1)c1ccccc12)S(C)(=O)=O (stereo not given),0,-5
NNc1ccc2c(Cl)cc(Cl)c(O)c2n1,9,3
COc1ccc(-c2cc(-c3ccc(OC)cc3)c(C#N)c(SCc3ccccc3C)n2)cc1,-3,-8
CCc1[nH]c2c(CNC(=O)c3cc(C)[nH]n3)cc(F)cc2c1C,5,2
C=CCC(=O)N1CCCC(CNC(=O)c2ccc(-c3ccccc3)cc2)C1 (stereo not given),7,7
CCCCSc1nnc2c(n1)OC(c1cccc(OC)c1)Nc1ccccc1-2 (stereo not given),-8,-9
COc1cccc(/C=C2/SC(=S)N(CCC(=O)Nc3nnc(C)s3)C2=O)c1,-5,-8
CCCCn1nnc(-c2nc(N3CCOCC3)nc(N3CCOCC3)n2)n1,-1,-3
CC(C)c1c(C(=O)N2CCC(C(N)=O)CC2)cnn1-c1ccc(F)cc1,8,6
N#CC(=C(O)CN1C(=O)c2ccccc2S1(=O)=O)c1nc2ccccc2[nH]1,6,1
N#Cc1ccccc1OCC(=O)Nc1cccc(F)c1,-3,-7
O=C(c1ccc[nH]1)N1CCC(c2[nH]ncc2-c2ccccc2)CC1,-5,-7
COc1cc(OC)cc(C(NS(=O)(=O)N2CC(C)OC(C)C2)c2nccn2C)c1 (stereo not given),0,-1
COc1cccc2cc(C(=O)N3CC(C)OC(C)C3)c(=O)oc12 (stereo not given),1,0
Cc1c(C)n2c3c(=O)n(CCC(C)C)c(=O)n(C)c3nc2n1-c1ccccc1N,10,14
O=C(N[C@@H]1CCCCC1NC(=O)C1CCN(S(=O)(=O)c2cccc(C(F)(F)F)c2)CC1)c1ccccc1 (stereo not given in full),2,6
CC(=O)NCC(=O)Nc1cccc(Cl)c1NC(C)C,-8,378
CCCS(=O)(=O)C(C)C(=O)Nc1cccc(-c2nccc(C)n2)c1 (stereo not given),0,3
Cc1noc(C)c1S(=O)(=O)N1CCCC2(CC1)CN(C)C(=O)O2 (stereo not given),5,5
CCOC(=O)c1ccc(NC(=O)Nc2ccc(C3NC(=S)N(CC)C(C)=C3C(=O)OC)cc2)cc1 (stereo not given),16,19
Cc1ccc(-c2nccc(C(F)(F)F)n2)c(-n2cccn2)c1,2,1
CCOC(=O)c1c(NC(=O)c2c(C)noc2C)c(-c2ccc3c(c2)OCO3)cn1C,2,1
CN(CCc1ccccc1)C(=O)c1ccc(-c2ccc(F)cc2)s1,3,0
CC(c1ccc(-c2cc(C(=O)N3CCN(C)CC3)ccn2)cc1)N1CCCC1 (stereo not given),24,11
Cc1cccc2[nH]c(C3CCCN3C(=O)C3=NNC(=O)CC3)nc12 (stereo not given),12,8
CCCCC(=O)Nc1c(C)nc2ccc(C)cn2c1=O,6,4

# 3 compounds from above, arranged by length of the SMILES, lowest first:
SMILES,NPYLR7 ag,NPYLR7 ag max-min
CC(=O)NCC(=O)Nc1cccc(Cl)c1NC(C)C,-8,378
Cc1ccc(-c2nccc(C(F)(F)F)n2)c(-n2cccn2)c1,2,1
Cc1cccc2[nH]c(C3CCCN3C(=O)C3=NNC(=O)CC3)nc12 (stereo not given),12,8

# The list continues.
SMILES,NPYLR7 ag,NPYLR7 ag max-min
O=C(c1ccc(CSc2nnc(-c3cccs3)n2-c2ccccc2F)cc1)N1CCN(c2ccccc2F)CC1,16,21
CCn1c(CN2CC[C@@H](c3sccc3C)[C@H](O)C2)nc2ccccc21,-2,-4
CN(Cc1cnccn1)c1ccc(-c2nc(-c3cccc(Cl)c3)no2)cn1,13,4
CC(C)CCc1nc(N2CCCN(C(=O)c3cccc([N+](=O)[O-])c3)CC2)c2cnn(-c3cccc(Cl)c3)c2n1,27,29
COC(=O)c1ccccc1OC1C=C(C)C(=O)O1 (stereo not given),-4,17
C=NC(C(=O)NC1C(=O)N2C1SC(C)(C)C2C(=O)O)c1ccccc1 (stereo not given),-12&-7,-16&-14
CN(C)c1nc(N(C)C)nc(C(CCC#N)([N+](=O)[O-])[N+](=O)[O-])n1,-8,-11
Cc1nc(C(=O)O[C@@H]2CCN(Cc3ccccc3)C2)c2n1CCCC2,2,-2
Cc1ccc(-c2nc(CC(=O)NC3CCS(=O)(=O)c4ccccc43)cs2)cc1 (stereo not given),1,2
CCCC1CC(=O)CC(=O)C1,21,8
COCCn1c(NC(=S)NC(=O)C2CC2)cc(=O)[nH]c1=O,2,-2
CCOC(=O)C=C1SCC(=O)N1CC(=O)N(CC)CC,3,1
CCC(C(=O)Nc1c(C)nc2ccc(C)cn2c1=O)c1ccccc1 (stereo not given),4,1
CCC1CN(Cc2ccc(CN(C)S(C)(=O)=O)o2)CCN1C(C)C (stereo not given),-1,-3
CN(c1cccc(O)c1)S(=O)(=O)c1ccc2c(c1)OCCCO2,4&11,-1&5
CC(C)c1nccn1CCCNC(=O)c1ccc(-c2ccc(N)nc2)nc1,5,3
O=S(=O)(c1ccc(F)c(Cl)c1)N1CCC(Cc2ccc(-c3ccccc3)cc2)CC1,7,3
CCCc1nc(N)c(C#N)c(-c2ccco2)c1CC,-4,-6
C#CCOCC(O)CN(Cc1cccn1Cc1ccc(C(C)(C)C)cc1)CC1CCCCC1 (stereo not given),1,9
C=CCN(CC=C)C(=O)CSc1nnc(-c2ccc(OC)cc2)n1-c1ccccc1C,7,10
COc1ccc(C2=NN(C(=O)C(C)C)C(c3ccc4nccnc4c3)C2)cc1 (stereo not given),0,7
CCCOc1c(Cl)cc(C(=O)NC(C(=O)N(C)C)C(C)C)cc1OC (stereo not given),-1,-4
Cc1cc(C(F)(F)F)c(C#N)c(SC(C)C(=O)N2CCNC2=O)n1 (stereo not given),-1,1
COC(=O)[C@@H]1CCCN1C(=O)c1cnn(-c2ncc(C)c(-c3ccc(F)cc3)n2)c1-c1cccs1,8,4
CCC/C=C/c1ccc(NC2CC2)nn1,9,8
CCOC(=O)N1CCC(NC(=O)c2cc(COc3ccccc3SC)on2)CC1,0&-3,-1&6
CC(=O)N1CCN(C(=O)CSCc2nc3ccccc3s2)CC1,0,10
O=C(NCCc1ccc2c(c1)OCO2)Nc1nnc(-c2ccccn2)s1,5,5
CCc1nccn1C1CCCN(C(=O)c2ccc3nncn3c2)C1 (stereo not given),9,3
Cc1ccc(-c2cc3c(=O)n(CC(=O)Nc4ccccc4C(F)(F)F)ncn3n2)cc1C,-6,-13
CSc1cccc(CN2CCN(Cc3cccc(C)n3)C(CCO)C2)c1 (stereo not given),-4,-6
COc1ccc(CN2CCN(CCN3C(C)CCC3C)CC2)c(Cl)c1 (stereo not given),7,6
CC(C)(C)c1cc(NC(=O)CN(Cc2ccco2)C(=O)/C=C/c2ccccc2)n(-c2ccc(Cl)c(Cl)c2)n1,20,21
N#CC1C(=S)N=C(N)C(C#N)C1c1cccc2ccccc12 (stereo not given),2,-1
COc1cccc(COc2coc(CN3CCCN(S(=O)(=O)c4ccc(OC(F)(F)F)cc4)CC3)cc2=O)c1,-9,-2
Cn1nnc2cc(C(=O)N3CC[C@@H](c4ccc5c(c4)OCO5)[C@H](O)C3)ccc21,3,13
CC(Sc1nnc2sc3ccccc3n12)C(=O)NCc1cccs1 (stereo not given),6,8
C=C(Cl)CN1CCC(CN2CCCC2)CC1,-1,-8
Cc1ccc(C(C)NC(=O)NC2CC(=O)N(C)C2)o1 (stereo not given),4,93
CCNC(=O)CCC/C=C\C[C@@H]1[C@@H](/C=C/C(O)CCc2ccccc2)[C@@H](O)C[C@@H]1O (stereo not given in full),-3,-10

# One compound at a time, as listed above. Screens in order: NPYLR7 ag	NPYLR7 ag max-min
# Entry for `CC(Sc1nnc2sc3ccccc3n12)C(=O)NCc1cccs1` (stereo not given) = 6	8
# Entry for `CSc1cccc(CN2CCN(Cc3cccc(C)n3)C(CCO)C2)c1` (stereo not given) = -4	-6
# Entry for `COc1cccc(COc2coc(CN3CCCN(S(=O)(=O)c4ccc(OC(F)(F)F)cc4)CC3)cc2=O)c1` = -9	-2
# Entry for `COc1ccc(CN2CCN(CCN3C(C)CCC3C)CC2)c(Cl)c1` (stereo not given) = 7	6
# Entry for `N#CC1C(=S)N=C(N)C(C#N)C1c1cccc2ccccc12` (stereo not given) = 2	-1

# More compounds:
SMILES,NPYLR7 ag,NPYLR7 ag max-min
COc1ccc(S(=O)(=O)c2c(C)cc(C)n(CC(=O)NCc3ccc(C)cc3)c2=O)cc1OC,1,-8
FC(F)(F)CCc1ccnc(NCC2CCOCC2)n1,21,10
COc1ccc(OCCN2CCC(C(=O)NC(c3ccsc3)c3ccccc3C)CC2)cc1 (stereo not given),-10,-16
Cc1ccc(-n2ncc3c(C)nnc(SCC(=O)NCC4CCCO4)c32)cc1C (stereo not given),-5,-11
CCCN1C(=O)c2ccccc2N(CC(=O)N(C)CC2OCCO2)C(=O)C1Cc1ccccc1 (stereo not given),-1,8
NC1=NC(=Nc2ccc(F)cc2F)c2ccccc21,0,-1
CCOC(=O)C1CCN(C(=O)c2cn(C)nc2OC)CC1,0,4
COCCN(C)C(=O)C1CCCc2ccn(CC3CC3)c21 (stereo not given),-3,-2
COc1cc(-c2nc3cc(C)ccn3c2NC2CCCCC2)ccc1OC(=O)c1cccc2ccccc12,2,12
CCc1ccc(/C=C2/SC(=S)NC2=O)cc1,18,6
COc1ccc(N(C)S(=O)(=O)c2ccc(OC)c(N3CCN(S(=O)(=O)c4cccc(C(F)(F)F)c4)CC3)c2)cc1,26,17
CSc1ccc(C(=O)C2CCCN(C(=O)CCc3c[nH]c4ccccc34)C2)cc1 (stereo not given),3,-1
CCOC(=O)Cn1c(=O)c2c(nc3n(-c4ccc(C(F)(F)F)cc4)c(C)c(C)n23)n(C)c1=O,10,13
CCCCCCCC(C)=NN1C(=O)CSC1=S,1,-1
CN1CCCC2(CC1)CCN(C(=O)CCc1ccccc1F)CC2,2,1
CC1CCc2c(sc3nc(-c4ccc(N(C)C)cc4)nc(N4CCNCC4)c23)C1 (stereo not given),-3,-2
Cc1nccc(-c2ccc(-c3ccc4c(c3)OCO4)cc2)c1-c1nn[nH]n1,-8,-12
O=C(Nc1ccc(C(F)(F)F)cc1Cl)NC(CO)c1ccco1 (stereo not given),-7,-8
O=C(c1cc(F)ccc1F)C1CCCN(C(=O)c2ccc(F)cc2Cl)C1 (stereo not given),10,1
COc1ccc(NC(=O)CSc2nc3nc(C)ncc3c(=O)n2C)cc1Cl,-9,-10

# Three entries picked at random from the list so far:
SMILES,NPYLR7 ag,NPYLR7 ag max-min
CCCCCCCC(C)=NN1C(=O)CSC1=S,1,-1
CCOC(=O)Cn1c(=O)c2c(nc3n(-c4ccc(C(F)(F)F)cc4)c(C)c(C)n23)n(C)c1=O,10,13
COc1ccc(NC(=O)CSc2nc3nc(C)ncc3c(=O)n2C)cc1Cl,-9,-10

# 2 entries from above, as tab-separated lines:
SMILES	NPYLR7 ag	NPYLR7 ag max-min
COc1ccc(NC(=O)CSc2nc3nc(C)ncc3c(=O)n2C)cc1Cl	-9	-10
CCCCCCCC(C)=NN1C(=O)CSC1=S	1	-1

# Continued.
SMILES,NPYLR7 ag,NPYLR7 ag max-min
Cn1c(=O)c2c(nc(CN3CCC(Cc4ccccc4)CC3)n2Cc2ccc(F)cc2)n(C)c1=O,-4,-7
O=C1CC(c2cccs2)Sc2ccccc2N1 (stereo not given),-2,-6
Fc1ccccc1Cc1n[nH]c(=S)o1,5,5
COc1cccc(Cc2nsc(N3CCC(C(=O)NCc4ccc5c(c4)OCO5)CC3)n2)c1,11,5
CC(=O)N1CCN(c2ccc(Nc3cc(C)ccn3)nn2)CC1,15,8
CCOC(=O)c1cc(-c2cccc(NC(=O)c3csc4ccccc34)c2)n(-c2ccccn2)n1,26,15
Oc1ccc(-c2[nH]ncc2-c2ccc(F)cc2)c(O)c1,-2,-7
CC(CC(=O)Nc1nnc(C2CC2)s1)c1ccccc1 (stereo not given),8,5
CC1CCCC(C)N1N=Cc1cc(Br)cc(Br)c1O (stereo not given),22,13
Cc1cc(C(=O)CN2C(=O)C(=O)N(C3CCCC3)C2=O)c(C)n1Cc1cccs1,6,2
O=[N+]([O-])c1ccc(Cl)c(S(=O)(=O)NCc2ccc3c(c2)OCO3)c1,13,16
O=C1NC(=S)NC(=O)C1=C/C=C/C=C/c1c(O)[nH]c(=S)[nH]c1=O,17,11
CNS(=O)(=O)c1cc(C(=O)N2CCCC(C(=O)N(C)C)C2)cc(C)c1C (stereo not given),0,-3
Cc1ccc(C(N)=O)cc1NCc1ccn(C)c(=O)c1,1,1
COC(CNC(=O)c1cn(C)c2c(=O)n(-c3ccc(F)cc3)c(=O)[nH]c12)OC,2,1
COc1ccc(NC(=O)N2CCCC(CNC(=O)c3cccs3)C2)c(C)c1 (stereo not given),20,9
Cc1ccc(CCC2CCN(C(C)C(=O)Nc3ccc(S(N)(=O)=O)cc3)CC2)cc1 (stereo not given),4,2
COc1ccccc1Oc1cc(F)nc(N)n1,-18,-23
CCN1CCN(Cc2nc3c(c(=O)n(C)c(=O)n3C)n2C(C)C(C)=O)CC1 (stereo not given),3&10,1&4
COc1ccc(CCNC(=O)c2ccc(CSc3nc(Cl)cc(N4CCC(Cc5ccccc5)CC4)n3)cc2)cc1OC,2,11
COc1ccc(Cl)cc1C(=O)NCCc1ccc(C(=O)O)cc1,-12,-23
COc1ccc(NC2=CC(=O)CC3(CCCCC3)C2)cc1OC,3&7,3&5
NC(=O)c1ccc(CN2CCCC(c3ccncn3)C2)cc1 (stereo not given),10,11
CCCCC(=O)NCCNc1cc(N(C)C)nc(C)n1,2,0
